Screens as filed in PubChem.
VDR inh: Inhibitors of the vitamin D receptor (VDR): qHTS | Vitamin D3 receptor (Homo sapiens), P11473 | VDR-SRC2-3 peptide fluorescence polarization, 2 h | Potency, µM, for inactives: max response, negative = inhibition, usual class: inhibitors | 0.93% of 400,000 active; active means well fitted inhibition curve with a large enough effect; inconclusive means small, poorly fitted or top-dose-only effect, or another doubt; inactive means no such curve, though single readings can be large or run the other way; further: series mostly up to about 120 µM
Target sequence (P11473 whole entry, looked up): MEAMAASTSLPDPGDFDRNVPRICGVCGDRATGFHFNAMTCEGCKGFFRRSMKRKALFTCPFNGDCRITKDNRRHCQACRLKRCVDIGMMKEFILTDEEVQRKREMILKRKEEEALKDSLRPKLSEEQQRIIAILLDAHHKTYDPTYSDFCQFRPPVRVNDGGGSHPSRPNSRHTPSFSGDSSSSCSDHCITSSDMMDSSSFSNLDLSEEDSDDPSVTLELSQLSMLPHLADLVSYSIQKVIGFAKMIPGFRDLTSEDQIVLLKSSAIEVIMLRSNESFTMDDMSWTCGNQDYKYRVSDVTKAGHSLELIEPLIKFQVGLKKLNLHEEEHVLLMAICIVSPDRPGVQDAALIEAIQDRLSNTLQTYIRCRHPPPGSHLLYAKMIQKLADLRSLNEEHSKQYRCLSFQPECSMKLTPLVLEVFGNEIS
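VDR–SRC2-3 interaction, FP format. Cmpds 23 nl via pintool, brief spin, 2 h ambient incubation.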
An asterisk follows results filed as active; ? = inconclusive; [ ] = dose if it differs, or a comment. On the % scale 0 is the no-effect control and ±100 the full control effect; potency means the concentration at half of the fitted maximal effect.

SMILES	VDR inh
O=C(CCNS(=O)(=O)c1ccccc1)N1CCCC1	-4%
CC1(C)CC(=O)C(=Cc2cn(CCC#N)nc2-c2ccc(F)cc2)C(=O)C1	?
CCCCc1ccc(NC(=O)C(C)CC)cc1 (stereo unspecified)	-1%
CCOc1ccc(S(=O)(=O)Nc2ccc(O)c(Sc3ncn[nH]3)c2)cc1	-3%
CC1(C)C(c2cccs2)=[N+]([O-])C2(CCCCC2=O)N1O (stereo unspecified)	9%
Cc1noc(C)c1COc1ccccc1C(=O)NC1CCC(C)CC1 (stereo unspecified)	15%
CCN1CCN(CC(O)COc2cccc(OC)c2)CC1 (stereo unspecified)	-5%
NC(=S)N/N=C/c1ccc2ccccc2c1	-23%
O=C(CSc1ccc2nnc(-c3cccs3)n2n1)N1CCCC1	11%
Fc1ccc(-c2csc(N3CCC(c4ccccc4)C3)n2)cc1 (stereo unspecified)	8%
CCOC(=O)c1ccc(Nc2nn3c(=O)c4ccccc4nc3s2)cc1	0%
CCC(=O)N1CCn2c1nc1ccccc12	-7%
NC(=O)C1CCN(C(=O)C(Cc2ccccc2)NC(=O)c2ccccc2)CC1 (stereo unspecified)	19%
COc1ccc(CCNC(=O)CNS(=O)(=O)c2ccc(Br)cc2)cc1	-16%
CCCCNC(=O)CCn1c(=O)c2ccccc2n(CC(=O)Nc2ccccc2OCC)c1=O	8%
CCOCCCNC(=O)c1ccc(-n2c(-c3ccccc3)cc3c2CCCCC3)cc1	2%
CC1CN(C(=O)CCC(=O)NCc2cccnc2)c2ccccc2O1 (stereo unspecified)	18%
Cn1nc(C(C)(C)C)c([N+](=O)[O-])c1C(N)=O	2%
COC(=O)c1sccc1NC(=O)Nc1cc(C)ccc1OC	-6%
CCCCCCSc1ccc([C@H]2N[C@@](Cc3ccccc3)(C(=O)OC)[C@H]3C(=O)N(CC)C(=O)[C@@H]23)cc1	3%
COc1cc(NS(=O)(=O)c2ccc(NC(=S)NC(=O)CC(C)C)cc2)nc(OC)n1	2%
CC(=O)Nc1ccc2c(c1)OCO2	-5%
CCC(=O)N(Cc1cc(=O)[nH]c2ccccc12)c1ccc(C)cc1	5%
CCn1c(N)c(C(=O)COC(=O)CCc2nc3ccccc3c(=O)[nH]2)c(=O)[nH]c1=O	22%
O=C(NC12CC3CC(CC(C3)C1)C2)c1cccnc1Cl	-3%
Cc1ccccc1N1CCN(S(=O)(=O)c2ccc3oc(=O)ccc3c2)CC1	9%
COc1ccc(Nc2nc(N)nc(C(F)(F)F)n2)c(OC)c1	10%
CCOC(=O)c1c(C)n(C)c2ccc(OC(C)=O)cc12	18%
Cc1ccc(C(=O)NCCc2ccc(S(N)(=O)=O)cc2)o1	-9%
CCOCCc1nn2c(=O)cc(COC(=O)c3ccccc3NC(=O)C3CCCCC3)nc2s1	2%

Sorted by the number under VDR inh (high to low): 6 from the list above.
Molecule	VDR inh
CCn1c(N)c(C(=O)COC(=O)CCc2nc3ccccc3c(=O)[nH]2)c(=O)[nH]c1=O	22%
COc1ccc(Nc2nc(N)nc(C(F)(F)F)n2)c(OC)c1	10%
Cc1ccccc1N1CCN(S(=O)(=O)c2ccc3oc(=O)ccc3c2)CC1	9%
CCC(=O)N(Cc1cc(=O)[nH]c2ccccc12)c1ccc(C)cc1	5%
CCOCCc1nn2c(=O)cc(COC(=O)c3ccccc3NC(=O)C3CCCCC3)nc2s1	2%
Cc1ccc(C(=O)NCCc2ccc(S(N)(=O)=O)cc2)o1	-9%

Continued:
SMILES	VDR inh
CCCc1nc2ccccc2c(=O)n1/N=C/c1ccc(O)cc1O	19%
Cn1c(=O)c2c(ncn2CC(=O)N/N=C/C(Cl)=C/c2ccccc2)n(C)c1=O	-22%
O=C(CNS(=O)(=O)c1ccc(Br)cc1)Nc1ccc2c(c1)OCCO2	-7%
CCOC(=O)N1CCN(C(=O)CS(=O)(=O)Cc2nc(-c3cccc(OC)c3)oc2C)CC1	1%
COc1ccc(C(=O)OCCN=C2NS(=O)(=O)c3ccccc32)cc1OC	-1%
COCCCNC(=O)Cn1c(=O)n(Cc2ccc(C(=O)NCCc3ccc(OC)c(OC)c3)cc2)c(=O)c2ccccc21	1%
COc1cc(OCc2ccccc2)c(C(=O)/C=C/c2ccc3c(c2)OCO3)c(OC)c1OC	-2%
CCOC(=O)c1ccccc1NC(=O)CSc1nc2ccccc2c(=O)n1CCCN1CCOCC1	-6%
O=C(O)c1cc(Cl)c(Cl)cc1C(=O)N(Cc1ccccc1)Cc1ccccc1	-17%
CC(OC(=O)c1ccc(F)c(S(=O)(=O)N2CCOCC2)c1)C(=O)NCC1CCCCC1 (stereo unspecified)	2%

Grouped by structure, those above containing bromine.
SMILES	VDR inh
COc1ccc(CCNC(=O)CNS(=O)(=O)c2ccc(Br)cc2)cc1	-16%
O=C(CNS(=O)(=O)c1ccc(Br)cc1)Nc1ccc2c(c1)OCCO2	-7%

The results go on:
SMILES	VDR inh
CCCCOCCCNc1ncnc2c1[nH]c1ccccc12	-9%
Cc1ccc(NC(=O)CC2SC(=NCC3CCCO3)NC2=O)cc1Cl (stereo unspecified)	-1%
Cc1cccc(NCc2cc(Cl)cc(Cl)c2O)n1	1%
CN(C)c1ccc(NC(=O)c2sc(SCC(=O)Nc3ccc(Br)cc3)nc2N)cc1	-3%
O=C(CNS(=O)(=O)c1ccc(Br)s1)N1CCN(C(=O)c2ccco2)CC1	31%[activator]
Cc1ccc(-c2cc(C(=O)N3CCN(c4ccccc4O)CC3)c3ccccc3n2)o1	-3%
NC(=O)CSc1nnc(CNc2ccc(F)cc2)n1CC1CCCO1 (stereo unspecified)	9%
NC(=O)c1nnsc1-c1ccc(-c2snnc2C(N)=O)cc1	-2%
CC1CCCCN1C(=O)CSc1nc(-c2ccccc2)no1 (stereo unspecified)	11%
O=C(CCCN1C(=O)c2ccccc2C1=O)NCCc1ccc(OC(F)F)cc1	5%
O=C(CSc1nc(CCC2CCCC2)nc2ccccc12)NCc1ccc2c(c1)OCO2	1%
O=C(O)CC(NS(=O)(=O)Cc1ccccc1)c1cccc([N+](=O)[O-])c1 (stereo unspecified)	-7%
Cn1c(SCc2ccccn2)nnc1-c1ccccc1	-6%
N#CC1=C(S)N(c2ccccc2)C(c2cccs2)NC1=O (stereo unspecified)	?
COc1ccc(NC(=S)NCCc2c[nH]c3ccccc23)c(OC)c1	-6%
O=C(CNC(=O)c1nn(Cc2ccccc2)c(=O)c2ccccc12)Nc1ccc(F)c(F)c1F	-2%
COc1ccc(-c2nnn(CC(=O)N3CCN(c4ccc(F)cc4)CC3)n2)cc1	0%
Cc1sc2nc(CN3CCCCC3)nc(N3CCN(C(=O)c4ccco4)CC3)c2c1C	9%
CC[C@@H](C)C(N)c1cn([C@@H](CCC(=O)O)C(=O)N2CCNCC2)nn1 (stereo partly specified)	-12%
COc1ccc(Nc2nc(NCC3CCCO3)c3ccccc3n2)c(OC)c1 (stereo unspecified)	12%
O=C(C1CC(c2ccc(F)cc2)=NO1)N1CCN(Cc2ccccc2)CC1 (stereo unspecified)	-3%
NC(=O)c1ccc(NC(=O)COC(=O)c2cccc(Oc3ccccc3)c2)cc1	-6%
COc1ccc(Nc2nc(Nc3ccc(OC)cc3OC)nc(N3CCN(C)CC3)n2)c(OC)c1	-15%
COc1ccccc1N1CCN(CC(O)COc2ccc(C)cc2C)CC1 (stereo unspecified)	-11%
O=C1NC(=O)/C(=C/c2cccc([N+](=O)[O-])c2)N1	5%
O=C(Nc1cccnc1)C1CC(c2ccccc2O)=NO1 (stereo unspecified)	9%
COc1cc2nc(SCC(=O)Nc3cccc(C)c3)n3nc(-c4ccccc4)nc3c2cc1OC	-17%
Cc1nnc(-c2ccc(Cl)cc2)[nH]c1=O	2%
Fc1ccc(NC(=S)Nc2ccc(Cl)cc2Cl)cc1	2%
COc1ccc(C(=O)CC(=O)C(=O)Nc2ccccc2OC)cc1	3%
COc1ccc(Cl)cc1-n1cc(-c2ccccc2)nc1SCC(=O)Nc1ccc(C)cc1	12%
CCCCCCOc1ccc(N2C(=O)CC(NCc3ccc(S(N)(=O)=O)cc3)C2=O)cc1 (stereo unspecified)	-17%
COC(=O)CSc1nnc(-c2sc3cc(OC)ccc3c2Cl)n1C	-14%
Cc1ccc(S(=O)(=O)N(Cc2cccc(F)c2)C(=O)N2CCN(C)CC2)cc1	-6%
O=C(NC1CCOCC1)C1CCC(=O)N(Cc2cccc(C(F)(F)F)c2)C1 (stereo unspecified)	2%
C=CCOc1ccc(CNc2ccc3[nH]c(=O)[nH]c3c2)cc1OC	-13%
COc1ccc(-c2cccc(C(=O)Nc3ccc(OC)c(OC)c3)c2)cc1	-6%
CCOC(=O)C1CCN(C(C)=C2C(=O)c3ccccc3C2=O)CC1	-21%
Cc1nnc2c3ccccc3nc(Nc3cccc(O)c3)n12	12%
Cc1cc(C)c(S(=O)(=O)Nc2cc(C)on2)c(C)c1	2%
CCC(C)N(C(=O)COC(=O)Cc1n[nH]c(=O)c2ccccc12)C1CCS(=O)(=O)C1 (stereo unspecified)	20%
O=C(O)c1cccc(NC(=O)c2ccccc2NC(=O)c2ccco2)c1	-22%
O=C(N/C(=C/c1ccccc1)C(=O)N1CCCCCC1)c1ccccc1	-15%
Cc1ccc(C)c(OCC(O)CN2CCC(Cc3ccccc3)CC2)c1 (stereo unspecified)	-26%
CSc1nc(C)c2c(n1)N(c1ccc(C(C)C)cc1)CC2	9%
C[C@H](NC(=O)c1ccccc1)C(=O)OCC(=O)Nc1sccc1C(N)=O	-21%
BrC(/C=C\c1ccccc1)=N/Nc1nc(N2CCOCC2)nc(N2CCOCC2)n1	-25%
CC(=O)c1cccc(NC(=S)NCCCCc2ccccc2)c1	-15%
COc1ccccc1N1C(=O)CC(Sc2n[nH]c(-c3cccc(C)c3)n2)C1=O (stereo unspecified)	-12%
Cc1ccccc1N(CC(=O)NC1CCCC1)C(=O)C1(C)CC(=O)N=C2C=CC(Cl)=CN21 (stereo unspecified)	-6%

Of the compounds above, two have a cyano group.
SMILES	VDR inh
CC1(C)CC(=O)C(=Cc2cn(CCC#N)nc2-c2ccc(F)cc2)C(=O)C1	?
N#CC1=C(S)N(c2ccccc2)C(c2cccs2)NC1=O (stereo unspecified)	?

More entries:
SMILES	VDR inh
COc1ccccc1NC(=S)N1CCN(c2cccc(C)c2C)CC1	-4%
CCc1ccccc1NC(=O)c1ccccc1N1C(=O)C2C3C=CC(C3)C2C1=O (stereo unspecified)	1%
O=C(c1ccccc1F)N1CCN(c2cccc(C(F)(F)F)c2)CC1	-16%
CCCC(=O)N1c2nc(C(C)C)nn2C2(CCCCC2)[C@@H]2CCCC[C@@H]21	2%
C#CCN1C(=O)C(O)(CC(=O)c2cccc(OC)c2)c2ccccc21 (stereo unspecified)	6%
COc1ccc(OCCOC(=O)CCS(=O)(=O)c2ccc(C)cc2)cc1	-8%
COCCCNC(=O)CCS(=O)(=O)Cc1ccc(C)cc1	-11%
O=C(NCc1ccco1)c1ccc(COc2cc(Cl)ccc2Cl)cc1	0%
O=C(O)C[C@@H](CNC(=O)COc1ccc2ccc(=O)oc2c1)c1ccc(Cl)cc1	11%
COc1cc(C(=O)N2CCC(C(N)=O)CC2)ccc1OCc1c(C)noc1C	-7%
CCCCOc1ccc(C(O)C(CN2CCCCC2)c2ccccc2)cc1 (stereo unspecified)	15%
Cc1c(NCc2cccnc2)cccc1C(=O)O	0%
Cc1cccc(C)c1Nc1nnc(SCc2nc3ccccc3s2)s1	-12%
CCOc1ccc(C(=O)Nc2nnc(SCC(=O)NCC3CCCO3)s2)cc1 (stereo unspecified)	-18%
CCOC(=O)C1=C(CSc2nccn2C)NC(=O)NC1c1ccc2c(c1)OCO2 (stereo unspecified)	0%
CCC1Oc2ccc(C)cc2N(CC(=O)NCc2cc(OC)ccc2OC)C1=O (stereo unspecified)	6%
COc1ccccc1C(=O)COC(=O)CN1C(=O)NC2(CCCC2)C1=O	-6%
CCC1Nc2ncnc(N3CCOCC3)c2N(Cc2ccc(C)cc2)C1=O (stereo unspecified)	5%
CSc1ccccc1C(=O)OCC(=O)Nc1ccc(N2CCOCC2)cc1	-4%
Cc1c(-c2ncn[nH]2)sc(C#N)c1-c1ccccc1	18%

Part of the list above, with values ahead of the structure.
VDR inh	Compound
11%	CC1CCCCN1C(=O)CSc1nc(-c2ccccc2)no1 (stereo unspecified)
5%	O=C(CCCN1C(=O)c2ccccc2C1=O)NCCc1ccc(OC(F)F)cc1

Next entries follow.
SMILES	VDR inh
Cc1nnc(NC(=O)c2nc(SCc3ccccc3F)ncc2Cl)s1	5%
CC(O)CNCCCOc1ccccc1OCc1ccccc1 (stereo unspecified)	8%
Clc1cccc(OCCCCCN2CCOCC2)c1	-3%
CCOC(=O)c1ccc(S(=O)(=O)N2CCN(S(=O)(=O)CC)CC2)cc1	2%
NC(=O)CC(NC(=O)Cc1ccc(Cl)cc1)c1ccc(NC2CCN(Cc3ccccc3)CC2)c([N+](=O)[O-])c1 (stereo unspecified)	-10%
CCSc1ccccc1C(=O)NC1CCCCC1	-8%
CCc1ccc2[nH]c(=O)c(CN(Cc3ccc4c(c3)OCO4)C(=O)c3ccco3)cc2c1	2%
COc1ccc2c(c1)O[C@@H](c1ccc3c(c1)OCO3)[C@H](OC(=O)NS(=O)(=O)c1ccc(C)cc1)C2=O	-7%
S=C(NCCc1ccccc1)NCCN1CCOCC1	-6%
CCOC(=O)C1=C(C(F)(F)F)Nc2ncnn2C1c1cc(OC)c(OC)cc1OC (stereo unspecified)	-4%
O=C(Cc1ccccc1[N+](=O)[O-])NCCC1=CCCCC1	-15%
CCCn1c(SCC(=O)NC23CC4CC(CC(C4)C2)C3)n[nH]c1=O	-9%
COc1ccc(-n2c(Cc3cccn3C)nnc2SCC(=O)N2CCCC2)cc1	-14%
Cc1ccc2c(c1)nc(NCCCO)n2C	-5%
CNC(=O)COc1ccc(S(=O)(=O)Nc2ccccc2)cc1	27%
COc1cc(OC)c(N(C)C(=O)c2cc3c(s2)-c2ccccc2S(=O)(=O)C3)cc1Cl	8%
Cc1nc2ccc(NC(=O)Cc3cccs3)cc2s1	1%
CC1=CC(C)C2COC(c3ccc[n+](C)c3)C1C2C (stereo unspecified)	0%
O=C(NNC(=O)c1ccccc1Cl)c1ccncc1	-17%

Only part of the results is shown; the hit share may differ from the screen's.
